# Rango release inh – inhibitors of RanGTP-induced Rango-importin beta complex dissociation; 0.071% of 340,000 active; Biochemical FRET Rango-importin beta, RanGTP-induced dissociation; O95149+P62826; Potency, µM (highest dose often 46.1 µM), inactives show top-dose activity change, negative = inhibition; AID 540253; active means falling FRET ratio curve, often poorly fitted, with flat reads before Ran was added; inconclusive means other falling curves, or compound fluorescence or quenching; inactive means flat or rising ratio curve;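 further: potency means the concentration at half of the fitted maximal effect; % of control where 0% means no effect; nearly all actives have a fitted effect of over 45% in size; -100% = wells without RanGTP and RCC1; the record marks most hits as doubtful in a second field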
#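 Recombinant Rango FRET biosensor (EYFP–snurportin 1 IBB–cerulean CFP10) at 0.1 uM premixed with 0.25 uM importin beta in PBS, 1 mM DTT, 0.02% Tween-20, 0.1% BSA. Compound added 5 min; RanGTP-RCC1 (0.6 uM Ran, 2 mM GTP, 0.2 uM RCC1) then triggers release, read at 45 min.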
# Rango-impB inh – prevents formation of the Rango-importin beta complex | 0.031% of 340,000 active | Q14974 | Potency, µM (top dose mostly 92.2 µM), for inactives: top-dose inhibition of complex formation | Rango CFP/YFP FRET sensor + importin beta, 45 min; active = rising FRET ratio curve, often small or poorly fitted; inconclusive = mostly compound fluorescence or quenching in the first reads; inactive = flat curves in all reads;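 further: potency means the concentration at half of the fitted maximal effect; 0% = DMSO wells and 100% = buffer wells lacking importin beta; nearly all actives have a fitted effect of over 15% in size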
#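 FRET biosensor (snurportin 1 IBB flanked by EYFP and cerulean), 50 nM, with compound 5 min, then 0.125 microM importin beta in PBS, 1 mM DTT, 0.02% Tween-20, 0.1% BSA. CFP/YFP ratio read after 45 min at room temperature; pre-read flags interference.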
# miR-21 FLuc – raises the signal of a miR-21 reporter. HeLa miR-21 FLuc reporter, luciferase, 48 h. Potency, µM (doses to about 38.3 µM), for the others: at the highest dose reporter change, positive = more light. 340,000 tested, under 10 active. AID 2288; active = well fitted rising curve with a large enough effect; inconclusive = small, poorly fitted or top-dose-only effect; inactive = no such curve, though single readings can be large or run the other way;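 further: % of control where 0% means no effect; miR-21 action dims this reporter so a rising signal means less miR-21 action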
#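 Using DMEM plus 10% FBS, HeLa miR-21-FLuc cells are incubated with test compounds (final up to about 40uM) for 48 hours; firefly luciferase signal is then imaged following reagent-mediated lysis.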
# GLA inh pH 4.5 – alpha-galactosidase A (human) inhibition, pH 4.5. P06280. AID 1467. 230,000 tested, under 10 active. purified enzyme, 4-MU-alpha-Gal fluorescence, pH 4.5. activity change, negative = inhibition, % at 105 µM; inconclusive = small, poorly fitted or top-dose-only inhibition, or a rising curve; inactive = flat fitted curve, though single readings scatter; no compound was filed as active;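 further: 0% = full activity with enzyme and -100% = basal without enzyme; dose as in the result columns while the protocol names 77 µM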
# Target sequence (P06280 whole entry, looked up): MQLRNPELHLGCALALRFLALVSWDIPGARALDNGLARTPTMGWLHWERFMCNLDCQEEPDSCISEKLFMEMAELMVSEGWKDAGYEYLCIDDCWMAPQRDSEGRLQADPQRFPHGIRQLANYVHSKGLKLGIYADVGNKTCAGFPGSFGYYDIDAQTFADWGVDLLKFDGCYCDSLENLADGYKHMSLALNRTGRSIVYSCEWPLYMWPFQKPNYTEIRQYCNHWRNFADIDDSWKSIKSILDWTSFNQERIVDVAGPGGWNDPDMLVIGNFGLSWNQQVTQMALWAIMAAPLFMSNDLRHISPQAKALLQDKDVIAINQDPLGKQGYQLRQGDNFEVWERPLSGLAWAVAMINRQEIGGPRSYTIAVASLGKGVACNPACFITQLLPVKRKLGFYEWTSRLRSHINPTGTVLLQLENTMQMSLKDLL
# Active calls of the source: *; ? = inconclusive; · = not tested or not shown; & = joins results of further samples.
SMILES,Rango release inh,Rango-impB inh,miR-21 FLuc,GLA inh pH 4.5
CN1CCN(C(=O)CCN2C(=O)c3ccccc3S2(=O)=O)CC1,4%,1.3%,·,·
CC(C)CN(Cc1cc(=O)oc2cc(-c3ccccc3)c(O)cc12)CC(C)C,-6%,1.3%,21%,-11
CCOCCn1cnc2sc(C(=O)NCCCN3CCOCC3)c(C)c2c1=O,2%,-1.9%,-8%,·
CCOc1ccc(/C=N/n2nnnc2N)cc1O,-14%,?,-1%,-5
CCOC(=O)C1=C(O)/C(=C/c2cccc(OC)c2O)N=C1C,-29%,?,1%,-6
COc1ccc(CN2CC(C(=O)NCCCN3CCN(C)CC3)CC2=O)cc1 (configuration not stated),-1%,0.9%,0%,2
COc1ccc(NC(=O)NNc2cc(N3CCOCC3)nc(N3CCOCC3)n2)cc1,0%,0.9%,-5%,-3
CCCn1c(=N)n(CC(=O)c2cccs2)c2ccccc21,2%,-3.6%,2%,5
CCC(NC(=O)c1cc(COc2ccc(Cl)cc2OC)on1)c1ccncc1 (configuration not stated),19%,-1.2%,-21%,·
CCCCSc1cc(C)nc(N)n1,-4%,0.0%,-51%,4
CCN1C(=O)C2(/C(=C(\O)c3ccc4c(c3)OCCO4)C(=O)C(=O)N2CCCOC)c2ccccc21 (configuration not stated),6%,0.2%,1%,3
CC(=O)Nc1ccc(S(=O)(=O)NCC2CCC(C(=O)N3CC(C)CC(C)C3)CC2)cc1 (configuration not stated),-2%,-2.8%,4%,·
COc1ccc(C2C(C#N)=C(N)SC(N)=C2C#N)cc1OC,?,?,-13%,-26
OC(CCN1CC2CCC(CC2)C1)(Cc1ccccc1)c1ccco1 (configuration not stated),12%,6.0%,·,·
Cc1nc(SCC(=O)OCc2ccccc2)c(C#N)c(-c2ccccc2)c1C(=O)Nc1ccccc1,-25%,?,14%,-11
Cc1ccc(CN2C(=O)S/C(=C\c3ccccc3OCC(=O)O)C2=O)cc1,-5%,?,-1%,-22
CN(C(=O)C1CCCO1)c1nnc(-c2ccccn2)s1 (configuration not stated),-6%,-0.1%,-27%,-2
Cc1ccccc1NC(=O)COC(=O)c1cc(=O)c2ccccc2o1,·,·,1%,-6
CCCCc1c(O)nc(SCC(=O)N2CCOCC2)n(-c2ccccc2C)c1=O,11%,-1.3%,-5%,13
O=C(COC(=O)c1ncc(Cl)c(Cl)c1Cl)c1ccc(Cl)s1,1%,0.1%,1%,-2
Cc1cc(C(C)(C)C)c(O)c(C)c1CC1=NCCN1,-21%,-1.9%,8%,-5&2&-1&2&10
CC(C)(C)n1nnnc1C(c1cccnc1)N1CCN(c2ccccn2)CC1 (configuration not stated),-4%,-0.5%,-1%,1
CCc1ccc(C(=O)COC(=O)c2cccnc2Cl)cc1,1%,2.0%,-7%,6
COCCCN1C(=O)c2ccc(C(=O)O)cc2C1=O,14%,?,-1%,-1
CCC(C)c1ccc(S(=O)(=O)N2CCN(S(=O)(=O)c3ccc(NC(C)=O)cc3)CC2)cc1 (configuration not stated),19%,0.3%,11%,·
O=C(Cc1ccccc1[N+](=O)[O-])N1CCN(c2ccc(F)cc2)CC1,7%,-1.5%,-1%,2
CC(C)Nc1oc(Cc2cccc3ccccc23)nc1C#N,1%,?,-18%,-1
O=C(c1ccc(COc2ccccc2Cl)o1)N1CCCC1,3%,-2.2%,-9%,2
CC(C(=O)Nc1c2c(cc3c1CCC3)CCC2)N1CCCC1 (configuration not stated),9%,-1.4%,1%,-8
COc1ccc(NC(=O)c2cnc(C)cn2)cc1-n1cnnn1,13%,-1.2%,-10%,1
COC(C(=O)NC(C(C)C)C(C)C)c1ccccc1 (configuration not stated),49%,-0.4%,1%,-3
CCCCN1CN(Cc2ccco2)CNC1=S,-29%,?,0%,9
CC(=O)N1CCc2cc(S(=O)(=O)NC(C(=O)Nc3ccc4c(c3)OCCO4)C(C)C)ccc21 (configuration not stated),17%,-3.0%,-2%,-2
CC(=O)Nc1ccc(NC(=O)Cn2cc3c(n2)CCC(C)C3)cc1 (configuration not stated),·,·,-7%,-2
COc1ccc(OC)c(/C=N/NC(=O)c2cc(-c3ccc(C)o3)nc3ccccc23)c1,?,?,1%,-2
CCC(OC(=O)CCc1nc2ccccc2[nH]c1=O)C(=O)c1ccccc1 (configuration not stated),1%,1.6%,1%,-3
C/C=C\C=C/C(=O)Nc1cccc(C2=NOC3(C2)C[C@H](C(N)=O)N(C(=O)CC)C3)c1 (some centres not stated),-11%,0.7%,7%,-1
COc1ccc(CCNC(=O)CSc2nnc(NC(C)=O)s2)cc1OC,0%,2.2%,-1%,11
CN(C)C1=NC[C@H](Cc2ccccc2)N1CC1CCCCC1,-9%,-1.7%,·,·
COC(=O)c1cc(S(=O)(=O)N2CCC(c3ccccc3)C2)c[nH]1 (configuration not stated),0%,0.1%,11%,·
O=C(c1ccccc1)c1cccn1CC(=O)N1CCN(c2ccc(F)cc2)CC1,14%,2.5%,-4%,3
CCOC(=O)CSc1nc(C)c(C(C)=O)cc1C(N)=O,-9%,-6.1%,-2%,6
Cc1cc(C)c(-c2csc(NC(=O)/C=C/c3cccs3)n2)c(C)c1,-6%,-0.1%,?,-18
Cc1nc(-c2ccc(S(=O)(=O)NCC3CCN(C(=O)OC(C)(C)C)CC3)s2)cs1,?,-2.9%,0%,-20
O=C(NNC(=O)c1ccccc1O)c1ccc(S(=O)(=O)Nc2ccccc2F)cc1,6%,-1.1%,·,·
Cc1cc(NC(=O)Cn2nnc3sc4c(c3c2=O)CCCC4)no1,1%,2.2%,-10%,7
Cc1cc(NC(=O)Nc2ccc(F)cc2)no1,-5%,-0.1%,-24%,15
O=C(Cc1c(O)c2ccccc2oc1=O)c1ccc(F)cc1,13%,0.5%,·,·
COc1cc(NC(=O)c2ccc(C)cc2)c(OC)cc1NC(=O)CN1CCOCC1,4%,-1.8%,-12%,-5
COC(=O)c1cc(C)sc1NC(=O)CCCC(=O)O,16%,-4.6%,-6%,-2
CC1C(c2ccc3c(c2)OCO3)c2cc3c(cc2OC1N1CCOCC1)OCO3 (configuration not stated),-13%,1.7%,·,·
CCOC(=O)N1CCN(C(=O)Cn2cc3c(n2)CCCC3)CC1,-5%,0.5%,-6%,-5
CCOc1ccc(CNCCc2ccc(S(N)(=O)=O)cc2)cc1,-15%,-4.2%,3%,7
O=C(Nc1ccc(C2CCCCC2)cc1)C1CCCN(c2ncccn2)C1 (configuration not stated),7%,0.5%,-6%,-1
CCOc1ccc(C(=O)NCCCN2CCOCC2)cc1OCC,-14%,6.6%,-4%,3
CC(=O)Nc1ccc(NC(=O)CSc2nc3ccccc3o2)cc1,2%,1.1%,-24%,5
COc1ccc(-c2nnn(Cc3ccccc3)n2)cc1,-13%,0.4%,-33%,·
O=C(Nc1ccc2oc(-c3ccccc3Cl)nc2c1)c1ncn[nH]1,-9%,-4.1%,-69%,-2
CCCCc1ccc(NC(=O)N2CCN(c3cc(C)nc4ccccc34)CC2)c(C)c1,1%,1.5%,-2%,·
COc1ccc([C@H]2CC(=O)C=C(c3cc(C(F)(F)F)cc(C(F)(F)F)c3)C2)cc1,25%,0.3%,·,·
# Other entries follow:
SMILES,Rango release inh,Rango-impB inh,miR-21 FLuc,GLA inh pH 4.5
CCc1ccc(OCCn2ccnc2)cc1,19%,-0.9%,0%,·
COc1cc(C(=O)NCC(=O)N/N=C/c2ccco2)cc(OC)c1OC,11%,0.9%,2%,·
Cc1cc(C)c(S(=O)(=O)c2ccccc2F)c(=O)[nH]1,5%,0.5%,5%,·
CCCC(=O)Nc1cccc(NC(=O)c2ccc([N+](=O)[O-])cc2Cl)c1,20%,3.0%,-1%,1
CC1CCN(Cc2nc(Cl)c3c4c(sc3n2)CCC4)CC1,15%,-0.2%,-1%,-3
Cc1c(NS(=O)(=O)c2ccc(N=NN(C)C)cc2)c(=O)n(-c2ccccc2)n1C,7%,0.5%,-2%,·
CC1CCN(C(=O)COC(=O)CCC(=O)c2ccc(Cl)cc2)CC1,8%,0.6%,·,·
NC(=O)COC(=O)CC12CC3CC(CC(Br)(C3)C1)C2,0%,-2.7%,-3%,8
COc1cccc(CN2CCN(Cc3[nH]c4ccccc4c3C)CC2CCO)c1 (configuration not stated),-13%,3.8%,0%,10
Cc1cnc(=O)[nH]c1SCC(=O)c1ccc(F)cc1,-15%,?,-22%,·
O=C(CNc1cccc2ccccc12)N/N=C/c1ccc(OC(=O)/C=C/c2ccco2)cc1,-6%,1.7%,-4%,4
CN(C)C(=O)CCc1nc2sc3c(c2c(=O)[nH]1)CCCC3,6%,-0.9%,-1%,-1
CCC(C)N(C(=O)CCC(=O)Nc1cc(C)on1)C(C(=O)NC(C)(C)C)c1ccccc1Cl (configuration not stated),0%,-1.9%,0%,·
COc1ccc(NC(=O)Nc2c(SC)nsc2SC)cc1,-1%,6.7%,-3%,2
CN(C)C(=O)c1ccccc1NC(=O)Cc1cccc2ccccc12,12%,4.5%,-4%,·
Cc1cc(/C(N)=N/OC(=O)Nc2ccccc2)no1,-12%,1.9%,-18%,-2
CCCCNC(=O)CN1C(=O)NC2(CCOc3ccccc32)C1=O (configuration not stated),1%,0.1%,0%,·
Cc1cccc(CCNC(=O)C2CCC(CNc3c(N4CCCC4)c(=O)c3=O)CC2)c1 (configuration not stated),43%,-0.7%,-3%,0
Oc1[nH]c2c(Cl)cc(Cl)cc2c1N=NC(=S)NCC1CCCO1 (configuration not stated),35%,0.6%,-5%,-1
CCN(C(=O)COC(=O)C1CCN(S(=O)(=O)c2c(Cl)cccc2Cl)CC1)C1CCCCC1,-3%,3.3%,-2%,·
O=C(/C=C/c1ccc(F)cc1)NC(=S)Nc1ccccc1O,-6%,-1.0%,-34%,·
CCSc1nc2ccccc2c(=O)n1CCc1ccc(OC)c(OC)c1,-2%,3.2%,10%,0
COc1ccccc1N(C)S(=O)(=O)c1ccc(C(=O)Nc2cc(F)ccc2C)cc1,1%,4.7%,·,·
Fc1ccc2cc(-c3cccnc3)ncc2c1,-1%,0.0%,·,·
Cc1cccc(NC(=S)N/N=C/C(C)c2ccccc2)c1C (configuration not stated),4%,3.8%,1%,-1
Cc1ccc(-c2ccc(S(=O)(=O)N3CCCC3)cc2)cc1,-27%,-1.7%,-7%,-8
Cc1nn(-c2ccccc2)c(Cl)c1C(=O)OCC(=O)N(C)c1c(N)n(Cc2ccccc2)c(=O)[nH]c1=O,1%,-0.5%,·,·
CC(C)(C)C(=O)Nc1nnc(SCC(=O)NC2CC2)s1,-6%,-3.6%,-2%,·
O=C(Nc1cc(=O)[nH]c2ncnn12)c1ccccc1F,27%,3.4%,-3%,-3
CCCCN(C(=O)c1sc2nc3n(c(=O)c2c1C)CCC3)c1c(N)n(CC(C)C)c(=O)[nH]c1=O,3%,-2.6%,·,·
O=C(NCCc1c[nH]c2ccccc12)c1ccc2nc[nH]c2c1,24%,-0.1%,·,·

# Compound activity from PubChem.

# Not all compounds are listed; rates above refer to the full screens.
